Bioassay records: PubChem, several laboratories
Ecoli growth: E. coli growth inhibition, primary screen, OD600; Escherichia coli growth, 23 h; stronger effect = lower value; OD600 absorbance (no concentration beside the values); 330,000 tested, 0.21% active;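 active means OD600 absorbance below the run mean of sample wells minus 3.6 SD, in any replicate, cut at about 0.56 in these data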;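 further: stock transfer was 300 nL into about 60 µL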
HNF4A DNA FP: change in binding of human HNF4A to DNA, primary screen, biochemical, fluorescence polarization, FITC-DNA; 1 h; activity change, % at 10 µM; 360,000 tested, 0.3% active; AID 1224865, 2016; in the data active means activity change above about 30%, passing the limit was not always enough;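 further: controls were the assay level and a saturating level of protein; the project sought stronger binding though the title names inhibitors; some compounds called inactive have numbers as strong as hits; positive values seem to mean higher polarization but the record does not say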
Target sequence (P41235 whole entry, looked up): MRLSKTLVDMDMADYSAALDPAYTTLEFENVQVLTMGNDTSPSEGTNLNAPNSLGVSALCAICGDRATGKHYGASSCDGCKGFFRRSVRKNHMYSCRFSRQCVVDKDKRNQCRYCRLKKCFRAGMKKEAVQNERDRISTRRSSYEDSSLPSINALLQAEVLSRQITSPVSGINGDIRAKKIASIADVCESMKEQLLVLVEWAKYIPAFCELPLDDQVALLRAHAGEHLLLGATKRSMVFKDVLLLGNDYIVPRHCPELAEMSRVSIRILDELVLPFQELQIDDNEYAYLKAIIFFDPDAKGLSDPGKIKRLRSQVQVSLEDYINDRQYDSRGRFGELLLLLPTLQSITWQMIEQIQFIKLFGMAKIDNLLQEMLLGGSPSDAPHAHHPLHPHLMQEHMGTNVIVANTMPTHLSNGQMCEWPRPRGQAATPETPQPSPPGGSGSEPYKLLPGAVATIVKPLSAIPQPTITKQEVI
FGF22 binding: binders of human FGF22 protein, primary screen, FGF22 synaptogenesis inhibitor project, biophysical, thermal shift, single point; AID 651658, 2012; recombinant FGF22 thermal shift, SYPRO orange fluorescence; percent of sucrose octasulfate shift, DMSO zero; calls only at 9.99 µM; 340,000 tested, 1.5% active;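 active means melting point raised past a set limit in the mean and every replicate; inconclusive means no clear call; three in four hits are not shown here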
Target sequence (Q9HCT0 whole entry, looked up): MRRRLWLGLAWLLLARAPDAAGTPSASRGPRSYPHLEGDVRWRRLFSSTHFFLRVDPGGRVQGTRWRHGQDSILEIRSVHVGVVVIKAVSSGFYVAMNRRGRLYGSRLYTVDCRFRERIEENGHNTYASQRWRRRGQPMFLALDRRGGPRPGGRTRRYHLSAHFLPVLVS
AF4-AF9 inh: inhibitors of AF4 peptide binding to AF9, primary screen, biochemical, AlphaScreen, biotin-AF4 peptide, FLAG-AF9, single point | inhibition, % at 10 µM | 350,000 tested, 0.47% active | AID 651704, 2012;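 active means every replicate reaching a set inhibition limit, whatever the replicate mean, cut at about 25% in these data; inconclusive means mean inhibition reaches that limit but some replicates miss it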;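 further: 0% = plate neutral control median and 100% = total signal loss; the record names both 10 and 1 µM as test concentration; the first replicate is given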
ALR inh: inhibitors of human ALR sulfhydryl oxidase, primary screen, biochemical, H2O2 detection, HRP-luminol luminescence, single point; 290,000 tested, 3.8% active; AID 485317, 2010; FAD-linked sulfhydryl oxidase ALR (Homo sapiens), P55789; inhibition, % (no concentration beside the values); purified ALR, DTT oxidation;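 active means mean and each replicate at 75% or more; inconclusive means only one of the two met; inactive means neither met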;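 further: stock transfer was 7.5 nL into about 7.5 µL; 0% = neutral wells and 100% = wells with inactivated enzyme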
Target sequence (P55789 whole entry, looked up): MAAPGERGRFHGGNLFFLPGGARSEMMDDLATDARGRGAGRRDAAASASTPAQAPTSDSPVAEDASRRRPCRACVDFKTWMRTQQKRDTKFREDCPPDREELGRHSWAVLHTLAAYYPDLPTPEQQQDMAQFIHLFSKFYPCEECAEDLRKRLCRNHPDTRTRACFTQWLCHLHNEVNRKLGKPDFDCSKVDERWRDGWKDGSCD
rRNA inh HTS: reduced GFP signal of wild-type E. coli, primary screen, bacterial rRNA inhibitor project, GFP/RFP fluorescence, OD600, single point | E. coli WT GFP vs humanized-ribosome RFP mutants, 24 h; stronger effect = lower value; DMSO median 0, no signal -100 | GFP signal change (wild-type ribosome), % (concentration not given with the values) | 350,000 tested, 1.6% active;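 active means significant combined selectivity score with lowered wild-type GFP, culture density cut under 30%, mutant RFP and density less affected; inactive means any of these conditions unmet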; further: one replicate is shown; some compounds called inactive have numbers as strong as hits
Vif TR-FRET: inhibitors of Vif binding to APOBEC3G peptide, primary screen, biochemical, TR-FRET, GST-Vif 1-94, biotin-A3G peptide, dose response retest (AID 1117319); Virion infectivity factor (Human immunodeficiency virus type 1 group M subtype B (isolate …; inhibition, %, or IC50 in µM where a hit was titrated; 260,000 tested, 0.57% active; TR-FRET GST-Vif / biotin-A3G peptide binding; higher % means a stronger effect; test concentration not given here; strong numbers were not always called active;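 active means above the screen mean plus three standard deviations and confirmed in dose response; inconclusive means results disagree or hit not tested in dose response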;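 further: Vif residues 1-94 fused to GST binding biotinylated APOBEC3G peptide 110-148; 0% = full assay without inhibitor and 100% = GST in place of GST-Vif; retest series ran down from 100 µM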
rRNA inh HTS OD600: recorded beside rRNA inh HTS, whose call it bears; OD600 change, %; measured here: OD600 growth;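 optical density of the mix in the first replicate; 0 = DMSO median and -100 = no signal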
rRNA inh HTS RFP: further read-out of rRNA inh HTS, marked with its call; RFP signal change, %; measured here: RFP humanized mutant strains;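 first replicate; 0 = DMSO median and -100 = no signal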
Starred values were filed as active, the others as inactive; i = inactive; ? = inconclusive; nt = not tested or not shown; + = active, no number; & = joins results of further samples. This is a subset (hit frequency here may not be typical).

SMILES	Ecoli growth	HNF4A DNA FP	FGF22 binding	AF4-AF9 inh	ALR inh	rRNA inh HTS	rRNA inh HTS OD600	rRNA inh HTS RFP	Vif TR-FRET
COc1ccc(Nc2nc(-c3cccs3)nc3ccccc23)cc1S(=O)(=O)N1CCOCC1	0.73	5.9	i	10	-9	-17	3	13	nt
O=C(c1cccc(S(=O)(=O)N2CCCc3ccccc32)c1)N1CCN(c2ccccc2)CC1	0.68	1.6	i	8.8	0	-5	-15	1.5	-7%
Cc1ccc(S(=O)(=O)CCC(=O)OCC(=O)NCc2ccc(Cl)cc2)cc1	0.59	4.3	i	-1.6	6	11	-1	-0.8	-4%
O=C1C(c2ccc(F)cc2)N(C2CCCCC2)C(=O)CN1C1CCCC1 (centres undefined)	0.64	-3.2	nt	nt	nt	nt	nt	nt	-4%
CCN(CC)CCCNC(=O)c1cc2nc(-c3ccccc3)cc(C(F)(F)F)n2n1	0.68	0.7	i	7.9	nt	5	3	3.1	nt
Oc1cc2c(cc1CN1CCN(c3ncccn3)CC1)OCO2	0.72	3.6	i	1.8	39	11	5	-2.2	nt
CC(C)CN(C(=O)COC(=O)Cc1n[nH]c(=O)c2ccccc12)C1CCS(=O)(=O)C1 (centres undefined)	0.7	8.7	nt	nt	nt	nt	nt	nt	-8%
CCN1CCN(c2oc(-c3ccc(OC)cc3)nc2C#N)CC1	0.69	-2.5	nt	nt	-4	nt	nt	nt	-2%
Cc1csc(CN(C)C(=O)C2CCC(=O)N(Cc3ccc(Cl)cc3)C2)n1 (centres undefined)	0.68	-0.2	i	1.1	-3	4	8	-4.1	nt
CCn1cc(CN2CCC(C(=O)Nc3ccc(Oc4ccccc4F)cc3)CC2)cn1	nt	2.1	i	4.5	nt	1	-6	0.3	9%
Cc1ccnc(NC(=O)/C=C/c2ccccc2[N+](=O)[O-])c1	0.68	nt	i	1.9	0	12	7	-1.3	2%
COc1cccc(-c2cccc(-c3nc(C(=O)N4CCN(C)CC4)cc4c3[C@@H](CCO)N(S(=O)C(C)(C)C)C4)c2)c1 (some centres undefined)	nt	nt	i	-1.6	nt	1	2	2.1	nt
COc1ccc(NC(=O)N(C)C[C@H]2OCCCC[C@@H](C)Oc3ccc(NC(=O)Nc4c(C)noc4C)cc3C(=O)N([C@@H](C)CO)C[C@H]2C)cc1	nt	nt	i	-0.5	nt	2	-5	1.4	nt
Cn1nc([N+](=O)[O-])nc1N1CCOCC1	0.72	-0.6	nt	nt	-65	nt	nt	nt	-5%
CCOC(=O)Nc1cc(OC)c(OC)cc1Cc1nccc2cc(OC)c(OC)cc12	0.7	0.8	nt	nt	-14	nt	nt	nt	10%
COc1ccc(OC)c(-c2nc3c(C)n[nH]c(=O)c3[nH]2)c1	0.68	0.4	nt	nt	-4	nt	nt	nt	4%
O=C(NCc1ccccn1)c1nn(-c2ccccc2)c(=O)c2ccccc12	0.7	-4.4	i	2.4	-6	1	-1	3.4	nt
Cc1c(-c2ccc(Cl)cc2)oc(=O)c2c(N)n(-c3ccccc3)nc12	nt	0.9	nt	nt	-14	nt	nt	nt	?
O=C(OC(C(=O)NCC1CCCO1)c1ccccn1)c1cccs1 (centres undefined)	0.66	-2.1	i	0.2	-3	10	-1	-3.5	?
Cn1c(SCC(=O)NNC(=O)Cc2ccccc2)nc2ccccc2c1=O	0.68	1.2	i	-2.0	-10	8	6	-1.1	-1%
CCS(=O)(=O)c1ccc(C(=O)Nc2cccc(Cl)c2)c(Cl)c1Cl	0.71	-3.2	nt	nt	-12	nt	nt	nt	6%
CN(CC(=O)Nc1ccc(F)cc1)C(=O)CN1C(=O)NC2(CCCCC2)C1=O	0.73	-1.7	i	-0.3	-3	17	12	4.2	-14%
C[C@@H]1CN([C@@H](C)CO)C(=O)c2cccc(NS(=O)(=O)c3cccs3)c2O[C@H]1CN(C)S(=O)(=O)c1ccc(Cl)cc1	nt	nt	i	-1.3	nt	-3	-2	4.8	nt
O=C(NN1C(=O)/C(=C/c2cccs2)SC1=S)c1cccnc1	0.62	3.7	i	-0.3	nt	-4	4	7.2	?
COCC1CCCCN1C(=O)c1cccc(OC2CCN(C(=O)C3CC3)CC2)c1 (centres undefined)	0.73	-1.2	i	-2.8	-9	2	6	2.4	nt
CCOCCCNC(=O)C(c1ccc(C)cc1)N(Cc1cccs1)C(=O)c1ccccn1 (centres undefined)	0.64	0.8	i	0.5	0	-4	7	1.1	3%
COCCCNc1nc(N)c([N+](=O)[O-])c(NC2CCCCC2)n1	0.68	4.1	i	-2.2	-1	4	3	-3.0	-7%
O=C(NC(NC(=S)Nc1ccccc1C(=O)O)C(Cl)(Cl)Cl)c1ccco1 (centres undefined)	0.7	-6.2	i	4.9	nt	-10	1	5.8	nt
CCCCC(=O)Nc1ccc(C(=O)NNC(=S)NC(=O)c2ccco2)cc1	0.56	-1.2	i	-0.6	2	-9	2	25	?
COc1ccc(S(=O)(=O)NCc2cccnc2)cc1Br	0.66	129*	i	3.3	-2	21	8	2.8	nt
C[C@@H]1CN([C@@H](C)CO)C(=O)c2cccc(NC(=O)c3ccncc3)c2O[C@@H]1CN(C)S(=O)(=O)c1ccc(F)cc1	nt	nt	i	-1.5	nt	-5	0	-3.4	nt
C=CCn1c(N)c(C(=O)N2CCN(C)CC2)sc1=S	0.67	-2.1	nt	nt	99*	-1	-7	0.8	-2%
N#CC1(NC(=O)COC(=O)Cc2c[nH]c3ccccc23)CCCCC1	nt	4.4	i	1.8	nt	-5	-6	4.2	-5%
CCCCc1n[nH]c(=S)n1Cc1ccc(Cl)cc1	0.71	0.6	i	-7.9	28	-22	-26	-1.6	-3%
N#Cc1ccccc1OCC(=O)NCC(c1cccs1)N1CCOCC1 (centres undefined)	0.71	0.0	i	0.2	-4	5	2	1.0	nt
C[C@@H](NC(=O)[C@H]1[C@H](CO)[C@H]2Cn3c(cccc3=O)[C@H]2N1CCC(F)(F)F)c1ccccc1	nt	nt	i	-0.1	nt	2	8	-0.1	nt
O=C(c1ccc(S(=O)(=O)N2CCOCC2)cc1)N1CCN=C1SCc1cccnc1	0.71	0.1	nt	nt	99*	nt	nt	nt	0%
CC1=CC(=O)c2ccccc2C1=O	0.58&0.68	-0.1&-2.3	i	1.8&3.6	-75&-48	-3	-1	-1.4	nt
O=C(CSc1nnc(COc2ccc(Cl)cc2Cl)o1)Nc1ccccn1	0.74	7.7	i	0.8	-3	8	20	-1.3	nt
Cc1cc(NC(=O)Cn2cnc3sc(C)c(C)c3c2=O)no1	0.68	2.7	i	-3.2	-2	9	4	-0.3	nt

Compound profiles, from the list above. Values in the order: Ecoli growth | HNF4A DNA FP | FGF22 binding | AF4-AF9 inh | ALR inh | rRNA inh HTS | rRNA inh HTS OD600 | rRNA inh HTS RFP | Vif TR-FRET
Record of `O=C(NN1C(=O)/C(=C/c2cccs2)SC1=S)c1cccnc1` = 0.62 | 3.7 | i | -0.3 | nt | -4 | 4 | 7.2 | ?
Record of `O=C(c1ccc(S(=O)(=O)N2CCOCC2)cc1)N1CCN=C1SCc1cccnc1` = 0.71 | 0.1 | nt | nt | 99* | nt | nt | nt | 0%

Continuation:
SMILES	Ecoli growth	HNF4A DNA FP	FGF22 binding	AF4-AF9 inh	ALR inh	rRNA inh HTS	rRNA inh HTS OD600	rRNA inh HTS RFP	Vif TR-FRET
COc1ccc(C(=O)Nc2ccc(N3CCCC3)cc2)cc1	0.75	8.7	nt	nt	20	nt	nt	nt	5%
O=C(COC(=O)CCc1c[nH]c2ccccc12)NCc1ccc(Cl)cc1	0.65	3.7	i	5.9	6	-48	-62	-14	-4%
CCc1c(C)nc2ncnn2c1N1CCC(C(=O)NCc2cccc(OC)c2)CC1	0.71	0.6	nt	nt	nt	nt	nt	nt	3%&-3%
CCc1nc2oc3cc(OC)ccc3c(=O)c2c(=O)n1Cc1ccccc1	0.68	6.5	i	3.0	-3	-14	-35	-8.1	19%
Cc1ccc(C)c(NC(=O)COC(=O)c2cccc(S(=O)(=O)N3CCCC3)c2)c1	nt	0.8	i	-0.2	nt	-1	11	-1.1	nt
CC(C)(C)S(=O)N1C[C@H]2CC(=O)C=C2[C@@H]1CCO (some centres undefined)	nt	nt	i	-3.0	nt	3	15	-1.1	nt
CC1(C)CC(=O)C2=C(C1)N(CC1CCCO1)C(=O)C2(NC(=O)c1cccnc1)C(F)(F)F (centres undefined)	0.68	0.0	nt	nt	-3	21	9	0.2	3%
CC(=O)Nc1ccc(NC(=O)/C=C/c2cccc(C(F)(F)F)c2)cc1	0.7	0.6	i	-5.1	-3	11	14	-0.2	0%
COc1ccccc1/C=C/c1nc(S(=O)(=O)c2ccccc2)c(N2CCC(C(N)=O)CC2)o1	0.72	-5.5	i	-1.6	20	7	9	-1.1	11%
C[C@@H]1CN([C@@H](C)CO)C(=O)c2cc(NS(=O)(=O)c3ccc(Cl)cc3)ccc2O[C@@H]1CN(C)S(=O)(=O)c1ccc(F)cc1	nt	nt	+	-2.0	nt	-1	-10	5.1	nt
COCCNCc1ccccc1[N+](=O)[O-]	0.68	1.9	i	2.7	7	16	15	4.2	nt
O=C(COc1ccc2c3c(c(=O)oc2c1)CCC3)NCCCN1CCOCC1	0.69	0.1	i	-1.0	-9	4	8	-2.2	-3%
C=CCn1c(=O)c2c3c(sc2n2c(Nc4ccccc4)nnc12)CCCC3	0.75	0.3	nt	nt	11	nt	nt	nt	20%
Cc1noc(C)c1S(=O)(=O)N(C)C[C@H]1Oc2ccc(NS(=O)(=O)c3ccc(F)cc3)cc2CC(=O)N([C@@H](C)CO)C[C@@H]1C	nt	nt	i	0.1	nt	1	-1	0.3	nt
CCOC(=O)C(NC(C)=O)(OCc1ccc(F)cc1)C(F)(F)F (centres undefined)	0.77	2.0	nt	nt	-2	nt	nt	nt	-2%
O=C(NC(Cc1c[nH]c2ccccc12)C(=O)N/N=C/c1ccc(Cl)cc1)c1cccs1 (centres undefined)	nt	0.6	i	4.8	-1	5	6	0.9	13%
CC(=O)Nc1ccc(NC(=O)c2c(C)nc3ccccn23)cc1	0.71	0.8	nt	nt	-10	nt	nt	nt	?
COc1ccnc(N=CNOCc2ccc(F)cc2Cl)c1C#N	0.75	-2.2	nt	nt	5	nt	nt	nt	4%
CN(CC(=O)NCC1CCCO1)S(=O)(=O)c1ccc(Br)cc1 (centres undefined)	0.7	3.0	i	-5.1	-1	1	7	1.8	nt
C=CCN(c1ccccc1)S(=O)(=O)c1cccc(C(=O)NCC(c2ccc(F)cc2)N2CCOCC2)c1 (centres undefined)	0.68	0.7	i	9.3	2	-10	-29	-4.6	11%
O=C(c1cccnc1)N1CCN(c2ccc(Cl)cc2)CC1	0.65	-5.0	nt	nt	43	nt	nt	nt	nt
C/C(=N\Nc1nc(N2CCOCC2)nc(N2CCOCC2)n1)c1cccc([N+](=O)[O-])c1	nt	-4.1	i	1.6	-10	13	12	-3.2	-4%
CCCN1[C@@H]2c3ccc(-c4ccc(F)cc4)c(=O)n3C[C@H]1[C@H](CO)[C@H]2C(=O)NCCc1cn(C)cn1	nt	nt	i	1.8	nt	4	-2	-0.6	nt
